# Screens deposited in PubChem BioAssay by National Center for Advancing Translational Sciences (NCATS).
# TRPML1 agonist = human mucolipin-1 channel agonism. TRPML1-expressing cells, Ca2+ dye fluorescence, FDSS; host cell line not named in the record; reference of the full effect not given here. Q9GZU1. activation, % (concentration not given with the values). 410,000 tested, 0.12% active; in the data active = activation above about 50%; inconclusive = about 30% to 50%; inactive = below about 30%; further: 0% is about no effect; the text of the record puts the active cut at 80%
# Target sequence (Q9GZU1 whole entry, looked up): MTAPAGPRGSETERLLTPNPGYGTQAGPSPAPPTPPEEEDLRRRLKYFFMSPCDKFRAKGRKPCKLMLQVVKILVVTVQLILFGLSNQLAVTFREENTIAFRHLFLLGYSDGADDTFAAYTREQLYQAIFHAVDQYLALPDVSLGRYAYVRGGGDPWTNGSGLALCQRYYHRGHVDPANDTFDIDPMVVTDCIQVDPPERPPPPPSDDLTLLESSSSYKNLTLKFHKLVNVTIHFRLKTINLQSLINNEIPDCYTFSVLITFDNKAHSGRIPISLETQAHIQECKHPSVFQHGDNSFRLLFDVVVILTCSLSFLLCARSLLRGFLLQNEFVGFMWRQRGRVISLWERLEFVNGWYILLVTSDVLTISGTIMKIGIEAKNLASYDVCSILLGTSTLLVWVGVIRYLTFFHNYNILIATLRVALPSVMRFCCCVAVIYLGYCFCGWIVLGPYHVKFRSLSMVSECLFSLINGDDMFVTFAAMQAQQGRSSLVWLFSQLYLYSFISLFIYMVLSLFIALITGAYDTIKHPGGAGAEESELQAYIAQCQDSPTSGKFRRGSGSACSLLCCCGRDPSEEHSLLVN
#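 Kinetic FDSS Ca2+ read in Tet-induced TRPML1-DL cells (ABD Ca8 dye plus quencher, 45-90 min RT loading): baseline, then compound, then 110 s agonist window; EC80 agonist 54-4 at 4uM final added afterwards for a 110 s antagonist window.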
# D2 PAM = human D2 receptor positive allosteric modulation. 360,000 tested, 0.23% active. potentiation, % (no concentration beside the values). DiscoveRx D2 beta-arrestin cells, luminescence, 90 min; 100% = 57 uM dopamine signal. P14416; active = potentiation of 50% or more; inconclusive = 30% to 50%; inactive = 30% or less;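 further: compound concentration not given in the record; tested on top of an EC20 dose of dopamine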
# Target sequence (P14416 whole entry, looked up): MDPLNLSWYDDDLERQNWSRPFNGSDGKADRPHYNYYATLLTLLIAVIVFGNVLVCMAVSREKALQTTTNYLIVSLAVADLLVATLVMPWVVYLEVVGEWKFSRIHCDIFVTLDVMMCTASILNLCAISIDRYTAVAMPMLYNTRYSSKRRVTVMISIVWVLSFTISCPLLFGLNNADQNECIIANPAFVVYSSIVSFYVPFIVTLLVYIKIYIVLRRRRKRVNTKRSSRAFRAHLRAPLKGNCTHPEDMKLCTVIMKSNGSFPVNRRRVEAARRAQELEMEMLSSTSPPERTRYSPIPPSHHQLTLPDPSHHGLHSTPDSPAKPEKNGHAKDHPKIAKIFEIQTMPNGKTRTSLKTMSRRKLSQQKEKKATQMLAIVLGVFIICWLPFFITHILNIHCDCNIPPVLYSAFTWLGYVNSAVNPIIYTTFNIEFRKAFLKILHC
#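 D2 cells co-treated with compound plus 50 nM dopamine (EC20) for 90 min at 37 deg C to detect potentiation. Beta-arrestin recruitment was read as enzyme-fragment luminescence after 1 h at ambient temperature. Full response was set by 57 uM dopamine.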
# D2 agonist = human D2 receptor agonism in beta-arrestin assay. P14416. DiscoveRx PathHunter D2 beta-arrestin, luminescence, 90 min; 100% = 57 uM dopamine signal. activation, % (test concentration not listed). 360,000 tested, 0.084% active. AID 624465; in the data active = activation above about 40%; inconclusive = about 15% to 40%; inactive = below about 15%; further: compound concentration not given in the record; the text of the record calls up to 30% inactive
#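 Agonist mode: compounds alone added to overnight-plated D2 PathHunter cells for 90 min at 37 C, with 57 uM final dopamine (EC100) defining full response. Beta-arrestin recruitment detected by chemiluminescent reagent, read after 1 h at ambient temperature.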
# TRPML1 inh = inhibitors of human TRPML1 channel; Q9GZU1; TRPML1-inducible cells, Ca2+ dye fluorescence, FDSS; hits give low values; inhibition of EC80 agonist-evoked calcium signal; activity change, negative = inhibition, % (no concentration beside the values); 390,000 tested, 0.02% active; AID 624415; in the data active means activity change below about -50%; inconclusive means about -30% to -50%; inactive means above about -30%;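 further: stimulus is agonist 54-4 at its EC80 concentration; on the % scale 0 is the no-effect control and ±100 the full control effect; compound concentration not given in the record; the text of the record puts the active cut at -80%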
#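 TRPML1-DL cells, Tet-induced overnight (~16 h, 37 °C) at 1,500 cells/well, were loaded with Ca8 no-wash dye plus quencher for 45-90 min at room temperature. Compounds were pinned during FDSS kinetic reading; agonist 54-4 at EC80 (4 uM final) then added.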
# Six1-Eya2 blk = inhibitors of human Six1/Eya2 interaction; Q15475+O00167; AlphaScreen GST-Six1/His-Eya2 binding, biochemical; hits give low values; control for the full effect not named in the record; activity change, % (test concentration not listed); 360,000 tested, 0.56% active; in the data active = activity change below about -65%; inconclusive = about -30% to -65%; inactive = above about -30%; further: on the % scale 0 is the no-effect control and ±100 the full control effect; compound concentration not given in the record
#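 GST-Six1 + His-Eya2 (5X stock: 250/500 nM); Tris pH 8.0, 300 mM NaCl, 0.05% BSA, 0.02% Tween 20; GSH donor/Ni acceptor beads; 1 h 37 °C dark; AlphaScreen readout.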
# PINK1 modulator = PINK1 expression modulation | PINK1 immunofluorescence, high-content cytometry, 24 h | Potency, µM (highest dose often 76.6 µM), for the others: at the highest dose activation (PINK1 increase), actives largely listed as activators | 410,000 tested, 0.2% active | AID 624263; active = well fitted activation curve with a large enough effect; inconclusive = small, poorly fitted or top-dose-only effect; inactive = flat fitted curve, though single readings scatter; cell line not stated here;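 further: potency means the concentration at half of the fitted maximal effect; % of control where 0% means no effect; nearly all actives have a fitted effect of over 65% in size; a mitochondrial uncoupler was the plate control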
#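 Measures PINK1 amount and localization on or inside mitochondria by immunofluorescence. Stable cells get compounds at 5 concentrations for 24 hours before fixation and staining; CCCP controls included.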
# Numbers without * were called inactive; ? = inconclusive; nt = no result given; [ ] = dose if it differs, or a comment.
SMILES,TRPML1 agonist,D2 PAM,D2 agonist,TRPML1 inh,Six1-Eya2 blk,PINK1 modulator
Cc1ccc(-c2nc3nc4ccccc4nc3n2Cc2ccco2)cc1,0.3,-9,-1.3,27,5,5.3%
Cc1ccc(S(=O)(=O)N2CCC[C@H]2C(=O)NC2=NCCS2)cc1,0.0,0,-3.2,17,0,2.8%
COC(=O)CCSCC(=O)N1N=C(c2ccc(OC)cc2)CC1c1cccc(OC)c1OC (configuration not stated),0.0,-3,-5.0,40,4,1.1%
Cc1ccccc1NC(=O)c1ccc(COc2ccc3c(C)cc(=O)oc3c2)cc1,1.0,-2,-3.2,-7,1,4.3%
O=C(CN1CCN(S(=O)(=O)c2ccc(Br)cc2)CC1)Nc1ccc2c(c1)OCO2,0.1,-5,-1.0,11,-25,-0.4%
Cn1ncc2c(NCc3ccccc3)nc(NCCCO)nc21,-0.7,-6,-0.2,-13,0,2.1%
CCn1nc(C)c(/C=N/NC(=O)Cn2cncn2)c1C,0.2,-12,-0.9,5,-16,0.2%
CC(C)NCC(=O)NC12CC3CC(CC(C3)C1)C2,0.6,-7,-4.6,-6,14,-0.4%
COc1ccc(-c2n[nH]c(=S)n2/N=C/c2cccn2C)cc1,-0.7,-27,-7.0,-11,-14,-1.0%
Cc1cccc(-c2nnc3sc(-c4ccccc4)nn23)c1,4.0,0,-0.4,20,0,2.1%[38.3 µM]
Cc1c(C(=O)N2CCC[C@H]2C(N)=O)oc2c(F)cccc12,-0.4,-1,-3.0,0,4,0.4%
Clc1cccc(Cl)c1C[n+]1cccc2ccccc21,2.2,-10,3.0,0,1,1.8%
CNC(=O)c1ccc(NC(=O)CCNC(=O)Nc2ccccc2)cc1,-0.1,12,-1.3,21,-1,0.9%
CN(CC1COc2ccccc2O1)C(=O)c1ccc(N(C)C)cc1 (configuration not stated),0.0,-4,-5.6,16,-7,1.7%
O=C(C(=Cc1ccc(F)cc1)c1ccccc1)c1ccc(O)cc1,3.6,-12,2.2,19,-4,5.2%
Cc1ccccc1OCCCN1CCCC1,-0.7,-18,-4.4,2,0,14%[38.3 µM]
CC(C)Sc1nnc(Cn2c(=O)sc3ccccc32)n1-c1ccccc1,0.7,3,4.3,9,6,0.1%
O=S(=O)(c1ccccc1)c1cnc2ccccc2c1,0.0,-15,-0.4,9,11,-0.4%
COc1ccccc1N1CCN(C(=O)CCn2nc(C)c(S(=O)(=O)N3CCCC3)c2C)CC1,-0.7,nt,nt,2,nt,0.4%
Cc1cc(OCC(=O)C(C)(C)C)c2c(-c3ccccc3)cc(=O)oc2c1,1.7,1,3.6,-25,7,-1.8%
CC(C)CCNC(=O)COc1cccc2c1OC(C)(C)C2,1.3,-1,-24,1,0,-0.1%
Cc1nc(C)c(C(=O)NNC(=O)c2ccc(Br)cc2)s1,0.2,1,-1.0,16,6,0.6%
CCc1ccccc1N(CC(=O)NCCSCc1ccco1)S(C)(=O)=O,0.1,-5,0.7,-8,2,nt
Cc1ccc(C)c(N2CCN(C(=O)c3ccc4nc(-c5ccco5)c(-c5ccco5)nc4c3)CC2)c1,0.7,-8,-1.3,27,-7,5.8%[38.3 µM]
COC(=O)[C@@]1(C)[C@H]2C(=O)N(Cc3ccccc3)C(=O)[C@H]2[C@H]2CN=C(SCc3ccc(C#N)cc3)N21,1.2,0,-1.3,63,0,-1.1%
CC[C@]12c3[nH]c4cc(CCC(=O)N(C)C)ccc4c3CCN1C(=O)[C@@H](CC(=O)NCCCOC)C[C@@H]2C(=O)N1CCN(C(=O)C2CC2)CC1,-0.6,-5,-0.6,2,0,1.0%
Cc1ccc(NC(=O)Cn2c(=O)n(Cc3ccc(F)cc3)c(=O)c3cccnc32)cc1C,0.8,nt,nt,18,nt,0.9%
O=C(O)CCN1C(=O)c2ccc(NC(=O)COc3ccccc3)cc2C1=O,0.3,18,6.7,-2,6,-1.4%
C/C(Nc1ccccc1C(F)(F)F)=C1/CCOC1=O,0.5,1,-3.1,-1,-12,0.3%
COC(=O)c1sccc1NC(=O)c1c(Cl)cccc1Cl,2.3,-1,4.3,4,?,3.3%
COc1ccc(N2C(=O)CSC23C(=O)N(CC(N)=O)c2ccccc23)cc1 (configuration not stated),0.2,nt,nt,1,nt,-4.8%
CC1=CC2CC1C1C(=O)N(c3ccc(S(=O)(=O)Nc4nc(C)cc(C)n4)cc3)C(=O)C21 (configuration not stated),0.2,-1,1.0,-1,-20,1.1%
O=C(NCCc1ccccc1)C1CCN(S(=O)(=O)c2cccc3nonc23)CC1,0.6,10,-3.3,14,1,6.8%
Cc1cccc(Oc2sc(C(=O)c3ccccc3)c(N)c2C#N)c1,3.1,-11,-3.6,55,-2,-1.3%
Cc1cccc(Nc2nc(C)nc(N)c2S(=O)(=O)c2ccccc2)c1,1.6,nt,nt,27,nt,7.2%
Cc1ccc(NC(=O)NN2CCOCC2)cc1,-0.3,-5,-1.2,1,8,2.2%
CC1(C(=O)N2CCOCC2)CCCCC1,-0.5,-9,-3.9,-4,-3,-1.0%
O=C(O)C1C2C=CC(O2)C1C(=O)Nc1ccccn1 (configuration not stated),-0.7,-6,-2.0,6,-10,1.1%
CCCN=C(Nc1ccc(Cl)cc1)c1cccnc1,0.5,-13,-1.9,22,0,-1.0%[38.3 µM]
CC(C)C(C)NC(=O)COc1nc2ccccc2nc1N(C)C1CCCCC1 (configuration not stated),0.1,-8,0.2,14,0,14%

# Given field by field: entries from further up
mol: Cc1cccc(Nc2nc(C)nc(N)c2S(=O)(=O)c2ccccc2)c1
  TRPML1 agonist = 1.6 | D2 PAM = nt | D2 agonist = nt | TRPML1 inh = 27 | Six1-Eya2 blk = nt | PINK1 modulator = 7.2%

mol: Cc1ccc(NC(=O)NN2CCOCC2)cc1
  TRPML1 agonist = -0.3 | D2 PAM = -5 | D2 agonist = -1.2 | TRPML1 inh = 1 | Six1-Eya2 blk = 8 | PINK1 modulator = 2.2%

mol: CC1(C(=O)N2CCOCC2)CCCCC1
  TRPML1 agonist = -0.5 | D2 PAM = -9 | D2 agonist = -3.9 | TRPML1 inh = -4 | Six1-Eya2 blk = -3 | PINK1 modulator = -1.0%

# The results go on.
SMILES,TRPML1 agonist,D2 PAM,D2 agonist,TRPML1 inh,Six1-Eya2 blk,PINK1 modulator
COc1ccc(S(=O)(=O)Nc2ccc(F)c(Cl)c2)cc1OC,-0.1,4,-0.8,3,5,0.3%
Fc1ccccc1COc1ccc(/C=N/n2cnnc2)cc1,0.2,-7,-0.4,-10,1,-1.4%[38.3 µM]
COc1nc(N)nc(N2CCOCC2)n1,0.5,-13,-1.0,22,3,-1.2%
Cc1ccc(C(CC(=O)NCc2ccco2)c2ccc(OC(C)C)cc2)cc1 (configuration not stated),1.6,-17,-4.3,5,3,-5.2%[38.3 µM]
COc1ccccc1NC(=O)NCc1ccc(C)n1C,1.0,-4,0.4,-12,5,-0.7%
CC1(/[N+]([O-])=C/c2ccc(F)cc2)CCCCC1=O (configuration not stated),-0.3,-18,-3.7,-3,5,0.5%
Cc1ccc(-c2cc(C(=O)NC3CCCCC3)no2)cc1,3.6,-1,0.2,43,5,-0.4%
COc1ccc(OC)c(CNC(=O)c2ccc(Sc3ccc(C)cc3)c(N)c2)c1,1.5,nt,nt,37,nt,1.9%
Cc1cn([C@H]2C[C@H](O)[C@@H](CCC(=O)NCCCc3ccccc3)O2)c(=O)[nH]c1=O,0.4,-3,-4.7,-6,4,-0.5%
C#CCNC(=O)c1ccc(OCc2ccccc2)cc1Cl,0.8,-2,4.3,2,2,-0.7%
Fc1ccc(-c2noc(C3CCN(Cc4cccnc4)CC3)n2)cc1,1.0,-34,1.6,3,-3,-1.6%
COc1ccccc1N(Cc1cc2cccc(C)c2[nH]c1=O)C(=O)C(C)C,-0.4,0,-6.7,-8,4,1.4%
Cc1ccc2nc(NC(=O)CS(=O)(=O)Cc3ccccc3)sc2c1,0.9,0,-4.0,-11,-2,5.0%
COC(=O)c1cnn2c(C)c(Cc3cccc(F)c3)c(C)nc12,-0.6,-3,1.1,-18,1,3.0%
O=C1OCCC1=COCCOC=C1CCOC1=O,-0.4,0,-4.5,-1,1,1.2%
CCC(=O)N1CCN(c2ccccc2NC(=O)c2cccc(C)c2)CC1,-0.7,-19,-3.3,10,2,-0.3%[38.3 µM]
O=c1[nH][nH]c(C(F)(F)F)c1C=Nc1ccccc1Cl,-0.6,-14,-1.6,-3,2,2.3%
Cc1cc(C(=O)CSc2nnc(-c3cccnc3)n2-c2ccccc2)c(C)n1CC1CCCO1 (configuration not stated),0.1,5,-0.5,-2,-2,nt
COc1cccc(/C=C/C(=O)OCC(=O)c2ccc[nH]2)c1,-0.8,-7,-2.0,-4,-20,2.4%
CCCNCc1cc(Cl)c(OCC)c(Cl)c1,0.3,-16,-2.4,-5,30,6.2%[38.3 µM]
COc1ccccc1N(C)S(=O)(=O)c1ccc(C(=O)N(C)Cc2cccc(F)c2)cc1,-0.7,-19,-3.8,3,1,0.4%
COCCNC(=O)c1ccccc1NS(=O)(=O)c1ccc(C)c([N+](=O)[O-])c1,-0.4,-15,-2.9,14,-3,0.1%
CCOc1ccc(OCC)c(NC(=O)CC2Oc3ccccc3NC2=O)c1 (configuration not stated),0.5,-1,-1.2,-5,2,0.8%
CCC(C)NC(=O)C1CC(c2ccc(OC)cc2)=NO1 (configuration not stated),-0.5,-4,-1.3,-9,2,-0.4%[38.3 µM]
CC1CCC(NC(=O)C2(C)CCC(=O)N2Cc2cccnc2)CC1 (configuration not stated),-0.7,0,-30,-10,3,1.1%
N=c1n(CCCOc2ccc(F)cc2)c2ccccc2n1CC(N)=O,0.6,-4,-6.1,0,-9,3.5%
O=C(N(c1ccccc1)c1ccccc1)n1ccnc1,-0.4,-5,-1.5,2,0,5.7%[38.3 µM]
Cc1nc(N)sc1N=Nc1ccc(F)cc1,-0.2,-4,-5.1,-6,?,2.0%[38.3 µM]
CC1(C(=O)NS(=O)(=O)c2cccc(Cl)c2)CCN1C(=O)C1CC1 (configuration not stated),-0.3,-4,-2.7,nt,0,-0.4%
O=C1CSC(=S)N1c1cccc(Br)c1,-0.4,-5,-4.0,-1,-25,1.0%
CCN1CCN(CCCNC(=O)c2ccc3c(Cl)c4c(nc3c2)CCCC4)CC1,0.0,-30,-0.4,4,2,-1.5%
COc1ccc(S(=O)(=O)NC(=O)C2(C)CCN2C(=O)C2(c3ccccc3)CC2)cc1 (configuration not stated),-0.3,0,-1.5,nt,5,0.2%
CC(=O)OCC(=O)[C@H]1CC[C@H]2[C@@H]3CCC4=CC(=O)CC[C@]4(C)[C@H]3CC[C@]12C,1.0,-38,-4.3,28,3,0.7%
COc1cc(NC(=O)c2cccc(Br)c2)nc(OC)n1,-0.1,-2,0.4,-21,10,3.4%
COc1cccc2cc(C(=O)N3CCN(C(=O)c4ccco4)CC3)c(=O)oc12,0.9,-5,-0.8,54,-8,1.9%
COc1ccc(-c2nc3ccc(C)cn3c2Cc2cccc(F)c2)cc1OC,0.0,-11,-6.9,nt,-14,3.7%
